Screens from PubChem BioAssay.
TRPML1 inh: qHTS for Inhibitors of the Human Mucolipin Transient Receptor Potential 1 (TRPML1); TRPML1-inducible cells, Ca2+ dye fluorescence, FDSS; hits give low values; inhibition of EC80 agonist-evoked calcium signal; activity change, negative = inhibition, % (no concentration beside the values); hit rate 0.02% among 390,000; AID 624415, 2012; in the data active means activity change below about -50%; inconclusive means about -30% to -50%; inactive means above about -30%;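 further: stimulus is agonist 54-4 at its EC80 concentration; on the % scale 0 is the no-effect control and ±100 the full control effect; compound concentration not given in the record; the text of the record puts the active cut at -80%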
Target sequence (Q9GZU1 whole entry, looked up): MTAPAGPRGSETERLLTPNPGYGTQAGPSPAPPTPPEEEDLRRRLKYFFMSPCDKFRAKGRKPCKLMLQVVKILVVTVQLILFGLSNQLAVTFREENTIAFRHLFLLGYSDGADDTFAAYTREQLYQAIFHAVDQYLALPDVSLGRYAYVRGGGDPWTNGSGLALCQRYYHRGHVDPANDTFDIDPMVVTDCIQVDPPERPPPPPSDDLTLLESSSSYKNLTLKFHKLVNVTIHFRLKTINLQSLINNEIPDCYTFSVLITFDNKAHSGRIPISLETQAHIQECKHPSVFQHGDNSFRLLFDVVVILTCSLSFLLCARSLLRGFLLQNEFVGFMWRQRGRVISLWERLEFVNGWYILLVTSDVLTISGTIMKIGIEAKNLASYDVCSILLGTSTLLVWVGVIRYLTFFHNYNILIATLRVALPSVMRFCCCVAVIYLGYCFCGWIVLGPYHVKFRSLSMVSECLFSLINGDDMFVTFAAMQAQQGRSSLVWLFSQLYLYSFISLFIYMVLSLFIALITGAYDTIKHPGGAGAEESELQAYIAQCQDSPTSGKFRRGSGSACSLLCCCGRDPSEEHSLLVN
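Calcium fluorescence in TRPML1-DL cells induced overnight with Tet: a 110 s read after compound pin addition, then a 110 s antagonist read after challenge with 54-4 at 4 uM final (EC80).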
Menin-MLL FL inh: qHTS Assay for Inhibitors Targeting the Menin-MLL Interaction in MLL Related Leukemias: Competition With Fluorescein Labeled MLL-derived Peptide | Fluorescence polarization, fluorescein-MLL peptide displacement from menin | FP activity change, % at 61.4 µM | 290,000 tested, under 10 active; inconclusive = falling polarisation curve, or a change in total fluorescence; inactive = total fluorescence flat and polarisation flat or rising; no compound was filed as active; the % refers to the polarisation; negative = inhibition;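 further: % of control where 0% means no effect; inhibitors lower the polarisation; unlabelled MLL peptide was the positive control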
ClpP mod: qHTS Assay for Activators of ClpP; ATP-dependent Clp protease proteolytic subunit (Bacillus subtilis (strain 168)), P80244; purified B. subtilis ClpP, FRET peptide cleavage, 20 min; Potency, µM (doses to about 57.5 µM), for inactives: at the top dose activity change, negative = active; hit rate 1.9% among 340,000; AID 651965, 2013; active = well fitted falling curve with a large enough effect; inconclusive = small, poorly fitted or top-dose-only effect; inactive = no such curve, though single readings can be large or run the other way; further: potency means the concentration at half of the fitted maximal effect; the source files actives as falling curves though it sought activators and does not explain the sign; nearly all actives have a fitted effect of over 65% in size; many hits overshoot -100%
Target sequence (P80244 whole entry, looked up): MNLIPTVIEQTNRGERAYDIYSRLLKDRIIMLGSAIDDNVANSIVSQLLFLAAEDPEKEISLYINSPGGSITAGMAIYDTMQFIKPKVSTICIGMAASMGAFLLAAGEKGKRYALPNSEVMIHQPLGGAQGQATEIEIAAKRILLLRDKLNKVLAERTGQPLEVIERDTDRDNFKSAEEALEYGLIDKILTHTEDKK
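Buffer: 100 mM Tris/HCl pH8, 100 mM KCl, 0.05% low protease BSA, 2.5% glycerol, 0.01% Tween-20. ClpP 10 microg/mL final; 20 min RT; delta FRET normalized to ADEP and DMSO controls.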
Sfp PPTase inh: qHTS Assay for Inhibitors of Bacillus subtilis Sfp phosphopantetheinyl transferase (PPTase); 4'-phosphopantetheinyl transferase ffp (Bacillus subtilis), Q9F4F7; Biochemical Sfp PPTase activity, qHTS; Potency, µM, for the others: max response, negative = inhibition, actives largely listed as inhibitors; hit rate 3.5% among 310,000; AID 1490, 2009; active means well fitted inhibition curve with a large enough effect; inconclusive means small, poorly fitted or top-dose-only effect, or another doubt; inactive means no such curve, though single readings can be large or run the other way;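 further: the enzyme is Sfp with the accession as filed and its product quenches rhodamine fluorescence; potency means the concentration at half of the fitted maximal effect; 0% = enzyme reaction without inhibitor and -100% = no enzyme wells; top concentration of the series not given in the record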
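After 15 min at room temperature with compound, 15 nM Sfp received 5 uM rhodamine-CoA plus 12.5 uM BHQ-2-ybbR (50 mM Hepes pH 7.6, 10 mM MgCl2). Rate came from the fluorescence difference over 30 min, ex 525/em 598 nm.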
TRPML1 agonist: qHTS for Agonists of the Human Mucolipin Transient Receptor Potential 1 (TRPML1). AID 624414, 2012. Mucolipin-1 (Homo sapiens), Q9GZU1. hit rate 0.12% among 410,000. activation, % (no concentration beside the values). TRPML1-expressing cells, Ca2+ dye fluorescence, FDSS; host cell line not named in the record; reference of the full effect not given here; in the data active = activation above about 50%; inconclusive = about 30% to 50%; inactive = below about 30%; further: 0% is about no effect; the text of the record puts the active cut at 80%
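Kinetic FDSS Ca2+ read in Tet-induced TRPML1-DL cells (ABD Ca8 dye plus quencher, 45-90 min RT loading): baseline, then compound, then 110 s agonist window; EC80 agonist 54-4 at 4uM final added afterwards for a 110 s antagonist window.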
TRPV1 potentiator: HTS Assay for Compounds that Act as Potentiators of the Vanilloid Receptor 1; Transient receptor potential cation channel subfamily V member 1 (Homo sapiens), Q8NER1; TRPV1-expressing cells, Fluo-8 calcium influx, capsaicin EC20 potentiation; host cell line not named in the record; control for the full effect not named in the record; potentiation, % at 8.33 µM; hit rate 0.02% among 320,000; AID 540277, 2011; active means potentiation above 80%; inconclusive means 30% to 80%; inactive means below 30%; further: 0% is about no effect
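TRPV1-expressing cells were cultured overnight at 35.5C and loaded with Fluo-8 calcium dye for 40 to 90 min at room temperature. After a 10 s baseline, compound was added and calcium influx was read kinetically for 3 min (ex 480/em 520 nm).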
PINK1 expr mod: A Quantitative High throughput Screen to Identify Chemical Modulators of PINK1 Expression; Potency, µM (highest dose often 76.6 µM), without a hit: at the highest dose activation (PINK1 increase), hits mostly activators; hit rate 0.2% among 410,000; PINK1 immunofluorescence, high-content cytometry, 24 h; active = well fitted activation curve with a large enough effect; inconclusive = small, poorly fitted or top-dose-only effect; inactive = flat fitted curve, though single readings scatter; cell line not stated here;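 further: potency means the concentration at half of the fitted maximal effect; % of control where 0% means no effect; nearly all actives have a fitted effect of over 65% in size; a mitochondrial uncoupler was the plate control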
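Stable cell line treated 24 h with compounds at 5 concentrations (CCCP controls), then fixed and immunostained for PINK1 plus nuclear and cell stains; PINK1 immunofluorescence quantified by laser-scanning microplate cytometry.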
* hit, by the source's call; ? = inconclusive; . = no result given; & = joins results of further samples; [ ] = another dose, or the depositor's remark.

nr	SMILES	TRPML1 inh	Menin-MLL FL inh	ClpP mod	Sfp PPTase inh	TRPML1 agonist	TRPV1 potentiator	PINK1 expr mod
1	Cc1cc(Cl)ccc1NC(=O)CN1C(=O)NC2(CCCc3ccccc32)C1=O (configuration not stated)	3	.	0.3%	.	-0.4	3	-1.4%
2	Cc1nnc(NN)n(N)c1=O	-2	2.4	.	10µM*	0.1	6	-1.3%
3	O=C(CCC(=O)Nc1ccccc1)N/N=C/c1cccnc1	14	0.5	0.6%	3%	0.7	-2	0.2%
4	CC(C)c1ccc(-c2csc3ncnc(N4CCN(C)CC4)c23)cc1	40	1.7	-1.2%	0%	-0.9	-24	-2.6%
5	Cc1[nH]c(=O)c(S(=O)(=O)c2ccccc2)c(C)c1Cl	14	-18	-11%	9%	0.2	10	1.8%
6	COc1ccc(Cl)cc1NC(=O)N1CCN(c2ccccc2OC)CC1	0	1.9	1.3%	22%	-0.6	-6	0.9%
7	Cn1c(SCC(=O)Nc2ccccc2)nnc1C(F)(F)F	16	-0.1	-0.5%	21%	0.5	6	-1.6%
8	CCOc1ccc2c(c1)sc(N)[n+]2Cc1cc(C)cc2cccnc12	14	0.3	0.2%	?	1.0	16	?
9	CC(=O)NCC(=O)NNC1CC(=O)N(c2cccc(Cl)c2)C1=O (configuration not stated)	35	1.2	0.2%	14%	-0.4	4	1.1%
10	CCOc1ccc2[nH]cc(C(=O)NCCc3ccccc3)c(=O)c2c1	-8	4.4	-25%	10%	2.9	6	3.3%
11	O=C(NCC1CCCO1)c1ccccc1OCc1ccc(Cl)cc1 (configuration not stated)	3	.	-1.5%	.	-0.8	-7	-1.2%
12	COc1ccc2c(c1)c1c(c(=O)n(CCc3ccccc3)c(=O)n1Cc1cccc(C)c1)n2C	-16	.	?	.	-0.3	.	-0.3%
13	COc1cc(/C=N/n2nnnc2Nc2ccccc2)cc(OC)c1OC	8	0.2	-5.9%	13%	2.9	10	3.1%
14	COc1ccc(/C=C2\SC(=S)N(CC(=O)OCC(=O)Nc3ccc([N+](=O)[O-])cc3OC)C2=O)cc1	12	8.2	.	?	0.5	-6	-0.3%
15	CCCOc1ccc(C2C(=O)N(C3CCCCCC3)CC(=O)N2CCC2=CCCCC2)cc1OC (configuration not stated)	6	.	-0.5%	.	0.4	.	1.0%
16	Cc1ccc(S(=O)(=O)N2CCN(C(=O)COC(=O)c3nc(Cl)ccc3Cl)CC2)c(C)c1	10	.	0.2%	.	1.0	.	1.4%
17	Fc1ccc(-n2ncc3c(NC4CCCCCC4)ncnc32)cc1	43	.	-14%	.	-0.7	.	12%
18	NNC(=S)Nc1c(Br)cc(F)cc1Br	21	2.0	1.5%	1%	1.1	-3	-1.0%
19	N#C/C(=C\N1CCCCC1)S(=O)(=O)c1ccc(Cl)cc1	4	-0.3	1.3%	21%	1.4	-8	-1.0%
20	CC(C)N(C(=O)c1ccc(C(=O)Nc2ccc([N+](=O)[O-])cc2)cc1)C(C)C	-7	3.0	.	7%	-0.6	-10	0.9%
21	COc1ccc2[nH]cc(CCNC(C)=O)c2c1	-15	-1.3	?	10%&21%&10%&36%	0.5	.	1.8%
22	COc1ccccc1CCC(=O)NNC(=O)c1cccs1	5	.	1.4%	.	-0.4	.	-0.2%
23	NS(=O)(=O)c1ccc(CCNc2nccn(-c3cccc(C(F)(F)F)c3)c2=O)cc1	-18	.	-10%	.	1.4	.	0.0%
24	COc1ccccc1-c1noc(CCC(=O)NC2CCCCC2)n1	9	.	-3.7%	-4%	1.0	1	1.8%
25	O=C1c2ccccc2C(=O)N1Cc1ccc2c(c1)OCO2	-5	4.4	-2.6%	9%	-0.2	-11	-3.2%[38.3 µM]
26	C[C@@H](OC(=O)c1[nH]cnc1C(=O)NCc1ccc(CNC(=O)OC(C)(C)C)cc1)c1ccccc1	-13	.	1.8%	.	-0.6	.	-0.5%
27	CC1(C)Cc2c(c(-c3ccccc3)[nH]c(=O)c2C#N)CO1	-9	-0.6	-11%	10%	-0.5	-4	-0.9%
28	COc1cccc(-n2c(SCC(=O)Nc3sc4c(c3C(N)=O)CCC4)nc3ccccc3c2=O)c1	10	5.2	?	3%	0.2	22	-1.6%[38.3 µM]
29	COC(=O)c1ccc(C(=O)OC)c(NC(=O)CS(=O)(=O)Cc2ccccc2)c1	-11	-2.8	-19%	9%	0.1	10	0.6%
30	CCOC(=O)c1ccccc1NC(=O)Cn1c(=O)n(CCC(=O)NCc2ccccc2OC)c(=O)c2ccccc21	-2	.	-1.6%	.	-0.8	.	1.0%
31	CCc1nc2ccc(C(=O)NCCOc3ccc(OC)cc3)cn2c1N(C)C(=O)COc1ccccc1	.	.	-6.0%	.	-1.0	.	-0.3%
32	CC(=O)NCCNC(=O)CCCc1nnc2n(C)c(=O)c3sccc3n12	-30	.	-18%	.	0.6	.	1.0%
33	Clc1nc(NC2CCCC2)nc(N2CCOCC2)n1	10	3.2	0.4%	21%	-0.1	-9	-0.7%
34	COc1cc(/C=N/Nc2ccc(F)cc2F)cc(OC)c1OC	-16	1.2	0.6%	6%	0.9	-12	-2.4%
35	Cc1cc(C)c(C#N)c(SCc2ccccc2C)n1	32	1.8	-0.3%	-15%	2.9	-6	7.8%
36	COc1cc(N)c(Cl)cc1C(=O)OCC(=O)Nc1cccnc1Cl	7	.	28µM*	.	-0.1	14	3.7%
37	CCNc1c(N)c(=O)oc2ccccc12	4	0.6	-5.4%	-3%	0.9	6	-0.4%
38	CC1CN(C(=O)C(Sc2ccccc2)c2ccccc2)CC(C)O1 (configuration not stated)	-11	-0.6	0.8%	11%	0.5	-30	0.6%
39	COC(=O)c1[nH]nc(C(=O)OC(C)(C)C)c1-c1ccccc1	36	-1.2	0.6%	-2%	1.9	5	8.4%
40	c1ccc(N2CCN(c3ncccn3)CC2)cc1	27	8.7	-2.0%	4%	1.5	9	1.0%
41	CC(C)C[C@H](NC(=O)N1CCn2c1nc1ccccc12)C(=O)NCC1CCCO1 (some centres not stated)	-6	.	-2.3%	-9%	-0.5	7	-1.4%
42	OC/C(Br)=C(\Br)CO	2	.	0.4%	.	0.3	1	0.4%
43	Cc1ccc(-c2nn(-c3ccc(F)cc3)cc2C(=O)NCC2CCCO2)cc1 (configuration not stated)	11	.	0.3%	.	-0.7	-6	-0.6%
44	CCOC(=O)c1cccc(NC(=O)/C=C/c2ccc([N+](=O)[O-])cc2)c1	-7	7.2	10%	-9%	2.0	-10	4.4%
45	CCCCn1c(=O)[nH]c(=O)c2c1nc(-c1cc3c(cc1Br)OCO3)n2C	-5	-1.6	.	15%	-0.8	5	0.9%
46	C=CC[C@@H](CC(=O)N(CCO)Cc1ccccc1)C(=O)NC[C@@H](OC(=O)[C@@H](CC=C)Cc1ccc(F)cc1)c1ccccc1	8	.	1.1%	.	2.5	.	8.4%
47	C[C@H]1CC[C@H]2C(=O)N[C@H](Cc3ccccc3)C(=O)N2[C@@H]1c1ccccc1	-12	-2.7[11.7 µM]	0.1%	-3%&19%	-0.4	2	-0.6%
48	CCOC(=O)CC1C(=O)NCCN1Cc1cccs1 (configuration not stated)	11	1.7	0.2%	35%[activator]	0.2	-4	0.1%
49	COC(=O)C1CN(C(=O)COc2cccc(C)c2C)c2ccccc2O1 (configuration not stated)	7	1.1	0.2%	3%	1.4	-19	3.3%
50	C/C(=N\NC(=O)C(C)n1nc(C)c([N+](=O)[O-])c1C)c1ccccc1O (configuration not stated)	0	.	-4.4%	3%	-0.7	-36	-0.9%

Remaining list, next part.
nr	SMILES	TRPML1 inh	Menin-MLL FL inh	ClpP mod	Sfp PPTase inh	TRPML1 agonist	TRPV1 potentiator	PINK1 expr mod
51	CCCCNc1c(-c2ccc(-c3ccc(C(C)=O)cc3)c(OC)c2)nc2cc(C)ccn12	30	.	1.1%	.	-0.1	.	0.7%
52	COc1cccc(/C=N/Nc2ncccc2[N+](=O)[O-])c1OC	7	3.8	.	-10%	0.0	3	0.1%
53	CSc1ccccc1NC(=S)NC1CCCC1	2	-0.8	1.3%	12%	0.3	-4	0.9%
54	CC(=O)Nc1ccc(S(=O)(=O)NCc2ccc(C)cc2)cc1	14	-1.4	0.8%	-5%	-0.7	-1	-0.1%
55	CCOC(=O)N1CCC(N(CCN(C)C)C(=S)Nc2ccccc2C)CC1	-18	0.0	-2.6%	18%	-0.3	0	-1.6%
56	CC(=O)c1ccc(NC(=S)Nc2cccc3ccccc23)cc1	57	-0.2	4.5%	?	-0.8	-15	-0.8%
57	CC1C(c2ccccc2)=Nn2c(=O)n(-c3ccccc3)c(=O)n21 (configuration not stated)	0	.	4.4%	.	-0.6	.	-0.7%
58	CNS(=O)(=O)c1cnccc1N1CCN(c2cccc(C(F)(F)F)c2)CC1	61	1.4	-3.2%	17%	-0.1	7	0.2%

An unsorted share of the library; any-hit rate near 4.4%.
